Source: PubChem BioAssay (National Center for Advancing Translational Sciences (NCATS))
EPAC1 agonist: validation of human EPAC1 agonists; 16,000 tested, 1% active; Potency, µM, without a hit: max response, positive = active, hits mostly activators; EPAC1 Rap1b BODIPY-GDP exchange, fluorescence; O95398; active = well fitted activation curve with a large enough effect; inconclusive = small, poorly fitted or top-dose-only effect; inactive = no such curve, though single readings can be large or run the other way;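 also: nearly all actives have a fitted effect of over 70% in size; series mostly up to about 76 or 150 µM; scaled to a cAMP control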
Target sequence (O95398 whole entry, looked up): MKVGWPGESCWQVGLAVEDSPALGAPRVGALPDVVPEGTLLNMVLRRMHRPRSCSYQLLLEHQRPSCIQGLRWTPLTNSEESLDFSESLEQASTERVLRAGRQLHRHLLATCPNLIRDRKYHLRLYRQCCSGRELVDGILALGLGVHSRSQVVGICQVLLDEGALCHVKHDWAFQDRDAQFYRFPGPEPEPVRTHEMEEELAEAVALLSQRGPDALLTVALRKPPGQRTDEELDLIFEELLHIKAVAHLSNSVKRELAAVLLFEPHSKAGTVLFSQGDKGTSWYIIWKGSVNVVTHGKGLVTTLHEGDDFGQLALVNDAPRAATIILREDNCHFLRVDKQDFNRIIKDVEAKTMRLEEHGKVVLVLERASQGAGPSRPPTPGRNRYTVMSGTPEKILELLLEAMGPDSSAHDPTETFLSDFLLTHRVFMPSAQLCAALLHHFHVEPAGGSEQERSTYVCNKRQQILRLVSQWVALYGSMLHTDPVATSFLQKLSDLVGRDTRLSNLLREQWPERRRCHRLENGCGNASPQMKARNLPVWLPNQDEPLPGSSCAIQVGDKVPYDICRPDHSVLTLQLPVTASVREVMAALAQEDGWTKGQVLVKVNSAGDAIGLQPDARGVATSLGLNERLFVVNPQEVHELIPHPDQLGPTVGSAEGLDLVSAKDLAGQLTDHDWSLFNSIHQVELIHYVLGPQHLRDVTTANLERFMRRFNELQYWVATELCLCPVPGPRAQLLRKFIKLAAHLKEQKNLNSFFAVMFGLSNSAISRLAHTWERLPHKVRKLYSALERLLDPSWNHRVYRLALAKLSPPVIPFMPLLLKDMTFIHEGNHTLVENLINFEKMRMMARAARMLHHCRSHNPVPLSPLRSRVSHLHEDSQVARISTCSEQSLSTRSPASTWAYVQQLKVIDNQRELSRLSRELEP
* = called active by the depositor; ? = inconclusive; & = joins results of further samples; [ ] = dose if it differs, or a comment. % is scaled to controls: 0 for no effect and ±100 for the full control effect; potency is read from the fitted curve at half-maximal effect. Only part of the results is shown; count on the stated rates, not on these rows.

SMILES | EPAC1 agonist
COc1cc(CN2CCCC(n3cc(C(=O)N4CCCCC4)nn3)C2)cc2c1OCO2 (stereo not given) | -15.1%
O=C(c1cnccn1)N1CCC[C@@]2(CCN(c3ccncc3)C2)C1 | ?
O=C(c1cccc(F)c1)N1CCC2(CC1)CN(c1ccccc1)C2 | 15.0%
CCN(CC)CCOC(=O)C(Cc1cccc2ccccc12)CC1CCCO1 (stereo not given) | 23.4%&-17.6%
Cc1cc2c(cc1C)N[C@]1(C[C@H]3CCC(=O)N4CC[C@@H](C1)[C@@H]34)C(=Nc1ccccc1C)N2 | -19.1%
N#CCCn1c(=O)c(-c2ccc(Cl)cc2)nc2cnc(Nc3ccccc3)nc21 | 112µM*
Cn1nnnc1SCC1=C(C(=O)O)N2C(=O)C(NC(=O)C(O)c3ccccc3)C2SC1 (stereo not given) | 24.7%
Cc1cc(C)c2nccc(/C=C/c3ccc(N(C)C)cc3)c2c1 | 100µM*
O=C1CC2(CCCC2)CC(=O)N1CCCCNCC1COc2ccccc2O1 (stereo not given) | -8.8%
COc1cccc(CNC(=O)c2c(OC)cc(=O)n3c2CCN(C(=O)c2cc(C)ccc2C)CC3)c1 | -5.0%
COc1cc(=O)n2c(c1C(=O)NC(C)c1ccco1)CCN(Cc1cc(C)cc(C)c1)CC2 (stereo not given) | -6.3%
Cc1ccc(S(=O)(=O)/C=C\C#N)cc1 | -18.8%
COc1cc2c(c(OC)c1OC)-c1ccc(OC)c(=O)cc1[C@H](NC(C)=O)CC2 | -14.2%
CC1(C)S[C@@H]2[C@H](NC(=O)[C@H](NC(=O)N3CCN(S(C)(=O)=O)C3=O)c3ccccc3)C(=O)N2[C@H]1C(=O)O | 20.4%
Cc1cc(C)c2cccnc2c1O | 2.8%
COc1ccc(C(=O)/C=C/c2ccccc2)cc1 | 29.2%
CC(=O)c1ccc(-c2cc(F)cc3c2OC(CNC(=O)C(C)N2CCOCC2)C3)s1 (stereo not given) | -25.4%
O=C(NCc1nnc2n1CCN(Cc1cc3c(cc1Cl)OCO3)CC2)c1cccc(F)c1 | -12.6%
COC(=O)c1cc(CNC(=O)c2ccccc2F)cc(NC(=O)c2ccccc2OC)c1 | -5.9%
Cc1ccc2occ(CN3CCOc4ccc(C(C)(O)COc5ccccc5)cc4C3)c(=O)c2c1 (stereo not given) | -11.3%
COc1ccc(-c2nc3cnc(N4CCOCC4)nc3n(Cc3cccc(OC)c3)c2=O)cc1 | -36.0%[inhibitor]
CCNc1ncc2nc(-c3cn(C)c4ccccc34)c(=O)n(C[C@H]3CCCO3)c2n1 | -38.4%[inhibitor]
COc1ccc(NC(=O)N2CCCC3(CCN(S(=O)(=O)c4ccccc4)CC3)C2)cc1 | -47.3%[inhibitor]
CCC(C(=O)OCCOCCN(CC)CC)c1ccccc1 (stereo not given) | -8.2%
O=C(c1ccncc1)N1CCC2(CC1)CCN(c1ccccn1)CC2 | -45.8%[inhibitor]
CO/S(=N\S(=O)(=O)c1ccc(Cl)cc1)c1ccc([N+](=O)[O-])cc1 (stereo not given) | -1.5%
CCN(CC)Cc1cc(Nc2ccnc3cc(Cl)ccc23)ccc1O | 4.2%&11.0%
CC(C)(C)C(=O)Oc1ccc(S(=O)(=O)Nc2ccccc2C(=O)NCC(=O)O)cc1 | -4.6%
O=C(c1cnccn1)N1CCC2(CC1)CCN(c1ccccc1)CC2 | -57.7%[inhibitor]
CC1CC(OC(=O)C(O)c2ccccc2)CC(C)(C)C1 (stereo not given) | -17.6%
Cc1cc(NC2CCCCC2)nc(-n2nc(C)cc2C)n1 | -7.2%
COc1ccc(OC)c2c(/C=C/c3c(C)[nH]c4ccccc34)ccnc12 | ?
CN(CC(=O)O)c1ccc(C=O)cc1 | 7.1%
CCn1c(-c2cccc(OC)c2)nc2cc(NC(C)=O)cc(C(=O)N(C)CC3COCCO3)c21 (stereo not given) | 0.2%
CS(=O)(=O)Nc1cccc(-c2cncnc2-n2ccnc2)c1 | -45.7%[inhibitor]
CO[C@@]1(NC(=O)Cc2cccs2)C(=O)N2C(C(=O)O)=C(COC(N)=O)CSC21 (stereo not given in full) | ?
CCOc1ccc(NC(C)=O)cc1 | ?
O=C(OCc1ccccc1)c1ccc(O)cc1 | -50.0%[inhibitor]
NC(Cc1ccc(O)c(O)c1)C(=O)O (stereo not given) | -14.8%
O=c1c(-c2cc(F)cc(F)c2)nc2cncnc2n1Cc1ccccc1Cl | ?
COCCn1c(=O)c(-c2ccc(F)cc2)nc2cncnc21 | -42.9%[inhibitor]
O=C(c1cnccn1)N1CCC2(CC1)CN(c1ccncc1)C2 | ?
COc1ccc(Oc2ncc3nc(C)c(=O)n(CCc4ccccc4)c3n2)cc1 | -49.2%[inhibitor]
CCCCCCCCCCCCCCCCCC(=O)[O][Al] | 9.9%
C=C[C@@H]1c2ccccc2N(S(=O)(=O)c2ccc(C)cc2)[C@H](c2ccccc2)C1(C#N)C#N | 5.9%
CC1(C)S[C@@H]2[C@H](N3C(=O)C(c4ccccc4)NC3(C)C)C(=O)N2[C@H]1C(=O)O (stereo not given in full) | ?
Cc1c(S(=O)(=O)O)oc2c1C(=O)C(=O)c1c-2ccc2c1CCCC2(C)C | ?
COc1ccc(-c2cc3ncc(C)n3c(Nc3ncccc3C(N)=O)n2)cc1OC | -3.5%
CC(C)C[C@@H](COc1ccccc1)N1CCN(C)CCC1=O | 9.1%
CN1c2ccccc2-c2ccccc2S1(=O)=O | -3.8%
CN1CCN(c2ccnc(-c3ccccc3C(F)(F)F)n2)CC1 | -50.6%[inhibitor]
O=C(NCC1Cc2cccc(-c3nccs3)c2O1)c1ccnc(Cl)c1 (stereo not given) | -19.4%
CCN(CC)CCNC(=O)c1ccc(NC(C)=O)cc1 | 3.6%&-19.7%
CCCNC(C)(C)COC(=O)c1ccccc1 | -6.5%
FC(F)(F)C(F)(F)C(F)(F)C(F)(F)C(F)(F)C(F)(F)C(F)(F)C(F)(F)Br | -7.9%
Cc1cnc(CNc2ncnc3ccc(-c4ccoc4)cc23)cn1 | -23.9%
c1csc(CNc2ncncc2-c2ccc3c(c2)OCO3)c1 | -56.2%[inhibitor]
Cc1cccc(CNC(=O)c2cnn(-c3ncc(C)c(-c4cccs4)n3)c2C2CC2)n1 | 8.8%
Cc1cnc(CNC(=O)c2c3n(c(C)cc2=O)-c2ccccc2SC(c2ccsc2)C3)cn1 (stereo not given) | -5.2%
FC(F)(F)c1ccccc1-c1nc(-n2ccnc2)c2ccccc2n1 | 1.0%

Another view of 2 compounds above:
EPAC1 agonist	smiles
-19.4%	O=C(NCC1Cc2cccc(-c3nccs3)c2O1)c1ccnc(Cl)c1 (stereo not given)
3.6%&-19.7%	CCN(CC)CCNC(=O)c1ccc(NC(C)=O)cc1

(continued)
SMILES | EPAC1 agonist
Cc1nc2cnc(N3CCOCC3)nc2n(CCC#N)c1=O | -52.3%[inhibitor]
CNCC[C@H](Oc1ccc(C(F)(F)F)cc1)c1ccccc1 | 5.7%&-21.2%
O=S1(=O)CCOC[C@H](c2ccccc2)N1Cc1cccc(Cl)c1 | -15.6%
CCCCCCCCCCCC[n+]1ccc(/C=C/c2c[nH]c3ccccc23)c2ccccc21 | -110.3%[inhibitor]
Cc1cc2c(c(-c3cnccn3)c1)OC(CNC(=O)c1ccc(-n3nc(C)cc3C)cc1)C2 (stereo not given) | -4.0%
COc1ccc(/C(=C\C(=O)O)c2nccc3cc(OC)c(OC)cc23)cc1OC | -13.8%
Cc1c(C(=O)NC(C)(C)C)sc2ncnc(NCCN(C)C)c12 | -0.5%
C#CCCCCCCCCCCCc1ccco1 | -128.2%[inhibitor]
CC[C@H]1c2[nH]c3ccc(C(C)C)cc3c2[C@@H]2CCN3C(=O)CCC[C@H]1[C@H]23 | -126.9%[inhibitor]
CCCN(CCc1cccs1)[C@H]1CCc2c(O)cccc2C1 | -7.0%
NC(=O)c1ccc[n+]([C@@H]2OC(COP(=O)([O-])OP(=O)(O)OCC3OC(n4cnc5c(N)ncnc54)C(OP(=O)(O)O)C3O)C(O)C2O)c1 (stereo not given in full) | 23.7%
C=C1C(C2(C)C=CC(=O)C(C)(C)C2CC(=O)OC)CC[C@@]2(C)C(c3ccoc3)OC(=O)C3OC132 (stereo not given in full) | 4.0%
COc1ccc2c(c1OC)OCC(c1ccc(OC)c(OC)c1OC)C2 (stereo not given) | -6.0%
O=C(c1cccc(F)c1)N1CCC2(CC1)CCN(C(c1ccccc1)c1ccccc1)CC2 | ?
CC1(C)S[C@@H]2[C@H](NC(=O)Cc3ccccc3)C(=O)N2[C@H]1C(=O)O | -4.5%
CCCCc1oc2ccccc2c1C(=O)c1cc(I)c(OCCN(CC)CC)c(I)c1 | ?
CN(C)c1ccc(/C=C2\CCCCC2=O)cc1 | -17.6%
COc1ccc([C@@H]2CC(=O)c3c(O)cc(O)cc3O2)cc1O | -11.3%
O=C1[C@H]2[C@H](C=CC[C@H]2C(=O)N2CCOCC2)CCN1Cc1ccc(Cl)c(Cl)c1 | -9.5%
Cc1c(C(=O)N(CCO)C(C)C)cnn1-c1ncc2c(n1)-c1ccccc1CCC2 | -20.8%

Reprinted at random: 2 records from the list
SMILES | EPAC1 agonist
C#CCCCCCCCCCCCc1ccco1 | -128.2%[inhibitor]
COc1cc(=O)n2c(c1C(=O)NC(C)c1ccco1)CCN(Cc1cc(C)cc(C)c1)CC2 (stereo not given) | -6.3%

Carrying on.
SMILES | EPAC1 agonist
CC(=O)c1ccc2c(c1)N(CCCN1CCC(CCO)CC1)c1ccccc1S2 | -32.2%[inhibitor]
NS(=O)(=O)c1cc2c(cc1Cl)NC(CC1CCCC1)NS2(=O)=O (stereo not given) | -14.8%
CN1CCC(OC(=O)C(Oc2ccc(Cl)cc2)Oc2ccc(Cl)cc2)CC1 | -33.6%[inhibitor]
CO[C@]1(NC(=O)C(C(=O)O)c2ccc(O)cc2)C(=O)N2C(C(=O)O)=C(CSc3nnnn3C)COC21 (stereo not given in full) | -4.3%
CN(C)c1ncnc2ccc(-c3cccnc3)cc12 | -16.4%
COC(=O)c1c(OCc2cccnc2)cc(=O)n2c1CCN(C(=O)c1cccc(N(C)C)c1)CC2 | 7.3%
CN(Cc1ccco1)c1ncnc2ccc(-c3cccnc3)cc12 | 10.7%
CC(C)(C)NCC(O)COc1ccc(NC(=O)NC2CCCCC2)cc1 (stereo not given) | -3.4%
COCCn1c(=O)c(-c2cc(F)cc(F)c2)nc2cnc(OCc3ccccc3)nc21 | ?
COc1ccc2c(c1OC)C(=O)O[C@@H]2[C@H]1c2c(cc3c(c2OC)OCO3)CCN1C | 0.5%&-5.8%&3.4%&2.0%
Cc1nc(C)n(CC(=O)NCC2Cc3cc(-c4cccc(OC(F)(F)F)c4)ccc3O2)n1 (stereo not given) | 7.8%
CC(C)c1ccc2c(c1)c(SC(C)(C)C)c(CC(C)(C)C(=O)O)n2Cc1ccc(Cl)cc1 | -4.9%&-40.9%
COc1ccc(CCNC[C@H](O)c2ccc(O)cc2)cc1OC | -10.8%
CN(C(=O)CO)c1c(I)c(C(=O)NCC(O)CO)c(I)c(C(=O)NCC(O)CO)c1I (stereo not given) | -2.9%
COc1ccccc1-c1ccnc(-n2ncc(C(=O)N(C)CCc3ccccn3)c2C)n1 | 7.4%
Cc1cccc(CN2Cc3cccc4c3[C@H](C=CC4)CC2=S)c1 | 29.3%
CCN(CC)C1CCN(C(=O)c2cnn(-c3nccc(-c4ccccc4OC)n3)c2-c2ccco2)C1 (stereo not given) | 1.1%
CN(C)c1ccc(/C=C/c2cc3ccccc3cn2)cc1 | -19.6%
Cc1noc(C)c1C(=O)N1CCC2(CCCN(c3ccccc3)C2)CC1 | ?
CN(Cc1ccco1)c1ccnc(-c2cccc(NS(C)(=O)=O)c2)n1 | -30.6%[inhibitor]
CCNc1ncc2nc(-c3ccc(Cl)cc3)c(=O)n(Cc3cccs3)c2n1 | ?
CCCCCCCCCCCCCC(=O)OCC(COP(=O)([O-])OCC[N+](C)(C)C)OC(=O)CCCCCCCCCCCCC (stereo not given) | -33.6%[inhibitor]
Cc1cc2ccccc2c[n+]1C1CCCCC1 | 3.8%
COc1ccccc1N1CCN(CCN2C(=O)c3ccccc3C(C)(C)C2=O)CC1 | -19.0%&14.6%
Cc1ncc2c(c1CNC(=O)/C=C/c1cccs1)CCN(C(=O)c1noc3c1CCCC3)C2 | -12.4%
Cc1cc2c(c(-c3ccc4nc(C)ccc4c3)c1)OC(CNC(=O)Cc1ccn(C)c1)C2 (stereo not given) | 10.6%
Cc1ccc(F)cc1CNC(=O)c1sc2ncnc(NCC3CCCO3)c2c1C (stereo not given) | -5.3%
CC(C)(Sc1ccc(CCN(CCCCC2CCCCC2)C(=O)NC2CCCCC2)cc1)C(=O)O | -4.1%&24.4%
CC(C)C1COc2cc3oc(=O)ccc3cc2O1 (stereo not given) | -55.6%[inhibitor]
CC(C)(C)NCC(O)c1ccc(O)c(CO)c1 (stereo not given) | ?
Cc1c(C(=O)NCCc2ccccn2)cnn1-c1nccc(-c2cccs2)n1 | -8.7%
O=c1cnc2cnc(Oc3ccccc3)nc2n1CCc1ccccc1 | -27.2%
C=CC[C@H](c1ccc(F)cc1)N(CC(C)C)S(=O)(=O)C=C | -0.6%

2 entries from above, field by field:
Compound: CC(C)(Sc1ccc(CCN(CCCCC2CCCCC2)C(=O)NC2CCCCC2)cc1)C(=O)O
  EPAC1 agonist: -4.1%&24.4%

Compound: CC(C)C1COc2cc3oc(=O)ccc3cc2O1 (stereo not given)
  EPAC1 agonist: -55.6%[inhibitor]
